# Assay outcomes as filed in PubChem BioAssay.
# Rce1 inhib: blocks yeast Ras-converting enzyme; Q03530; 290,000 tested, 0.27% active; yeast membranes, quenched prenylated peptide cleavage fluorescence; calls only;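 active = fall in fluorescence gain of 50% or more versus controls, with final raw signal at or below 3038400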;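 note: plate controls were neutral control wells for no effect and wells lacking membranes for full effect; tested at 10 µM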
# PABP FP inh: blocks human PABP binding to poly(A) RNA; P11940; fluorescence polarization; inhibition, % at 35 µM; 290,000 tested, 1% active; AID 2014;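 active = 50% or more with normal probe brightness, or confirmed in later tests; about a fifth of its hits are not listed in these tables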;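 note: calls also rest on retests at 20 µM and on dose response follow-up; controls were probe without protein and protein plus probe with vehicle; some compounds called inactive have numbers as strong as hits; many hits fall short of the cut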
# Target sequence (P11940 whole entry, looked up): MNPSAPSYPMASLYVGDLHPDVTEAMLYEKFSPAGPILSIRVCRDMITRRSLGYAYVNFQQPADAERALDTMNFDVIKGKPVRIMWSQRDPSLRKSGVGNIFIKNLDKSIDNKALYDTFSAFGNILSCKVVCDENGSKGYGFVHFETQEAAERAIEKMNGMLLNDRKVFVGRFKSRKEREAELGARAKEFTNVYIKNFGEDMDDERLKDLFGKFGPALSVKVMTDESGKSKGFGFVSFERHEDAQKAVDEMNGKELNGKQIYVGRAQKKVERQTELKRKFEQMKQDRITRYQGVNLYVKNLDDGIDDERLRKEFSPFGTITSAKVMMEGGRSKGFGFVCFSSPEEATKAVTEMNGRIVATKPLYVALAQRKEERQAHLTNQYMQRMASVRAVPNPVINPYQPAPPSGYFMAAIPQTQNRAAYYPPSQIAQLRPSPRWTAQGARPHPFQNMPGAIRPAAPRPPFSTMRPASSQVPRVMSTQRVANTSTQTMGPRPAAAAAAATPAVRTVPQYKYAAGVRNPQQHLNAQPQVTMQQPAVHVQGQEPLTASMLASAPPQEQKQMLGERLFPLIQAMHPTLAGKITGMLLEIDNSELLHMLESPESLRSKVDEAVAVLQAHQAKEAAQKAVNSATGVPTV
# MT1-MMP act inh: inhibitors of human MT1-MMP activation; P50281; AID 651647; HT1080 RFP-PRO-GFP cells, GFP/RFP ratio fluorescence, overnight; percent of plate control window, DMSO zero; GFP/RFP ratio change, % at 20 µM; 360,000 tested, 0.061% active;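 active = GFP/RFP ratio change of at least 30% with cell ATP level not reduced by more than half and red fluorescence within 50% of control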; note: strong numbers were not always called active
#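 Assay system – RFP-PRO-GFP reporter HT1080 cells · Compound dosing – single dose of 20 µM compound, 1% DMSO final · Incubation – overnight compound exposure at 37 °C · Measure – GFP/RFP fluorescence ratio · Benchmarks – DMSO wells and RFP-L50D-GFP cells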
# CSC inhib: blocks cancer stem cells; inhibition, % at 7.5 µM; 300,000 tested, 1.1% active; cancer stem cell-like cells viability, luminescence;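 active = mean at 75% or more and at least half the replicates too; tested in HMLE shEcad cells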;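 note: 0% = median of negative and 100% = median of positive control wells; the first replicate is given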
# eIF4H FP inh: inhibitors of RNA binding by human eIF4H | eIF4H fluorescence polarization binding assay | Q15056 | inhibition, % at 35 µM | AID 2012 | 290,000 tested, 0.94% active;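 active = 50% or more with normal probe brightness, or confirmed in later tests; about a fifth of its hits are not listed in these tables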;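 note: calls also rest on retests at 20 µM and on dose response follow-up; 0% = protein and probe with vehicle and 100% = probe without protein; strong numbers were not always called active; many hits fall short of the cut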
# Env fusion inh: blocks HIV Env-driven cell-cell fusion; HeLa-JRFL Env/CEM21 cell fusion, luciferase; inhibition, % at 12.3 µM; 360,000 tested, 1.1% active;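 active = mean replicate inhibition score of at least 50 and every replicate individually at or above 50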;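 note: 0% = plate neutral controls and 100% = maraviroc near 300 nM; one replicate is shown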
# UUG fidelity: yeast start codon fidelity modulation; S. cerevisiae UUG-firefly luciferase reporter, luminescence/redox ratio; activity score, % at 18.7 µM; 350,000 tested, 0.13% active; AID 602363;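 active = replicate mean at a twofold rise or more, about +100% in these data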;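 note: firefly luciferase made from a UUG start codon reports start codon fidelity; reporter light over untreated wells divided by growth signal over untreated wells; some hits fall short of that in this replicate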
# eIF4H FP inh retest: recorded beside eIF4H FP inh, whose call it bears; inhibition, %; compound at 20 µM; confirmation average;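 mean of two retest wells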
# PABP FP inh retest: second read-out of PABP FP inh, no call of its own (marks repeat the call); inhibition, %; compound at 20 µM; confirmation repeats;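 mean of two retest wells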
# MT1-MMP act inh RFP: second read-out of MT1-MMP act inh, no call of its own (marks repeat the call); RFP signal change, %; measured here: RFP expression control read;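 0 = vehicle wells; hits needed this value within 50% of zero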
# * = called active by the depositor; i = inactive; . = no result given; [ ] = remark or other dose. This is a subset; count on the stated rates, not on these rows.
SMILES,Rce1 inhib,PABP FP inh,MT1-MMP act inh,MT1-MMP act inh RFP,CSC inhib,eIF4H FP inh,Env fusion inh,UUG fidelity,others
C/C(=N\NC(=S)NCc1ccccc1)c1ccc2ccccc2c1OC(F)F,i,25,-3,-2,42,2,1,.,
COc1ccccc1NC(=O)N1CCCC1C(=O)NCc1ccc(F)cc1 (stereo not given),i,8,2,2,-7,-7,6,.,
CCOC(=O)c1sc2nc(CSc3ccccc3Cl)[nH]c(=O)c2c1C,i,-9,-14,-1,5,-2,-11,.,
Cc1cc(=O)oc(C)c1C(=O)NCCN1CCOCC1,i,6,1,2,-6,-8,-8,-20,
CCOCc1cc(CN2CCC(CCC(=O)NC3CC3)CC2)ccc1OC,i,8,1,3,-10,4,1,-2,
O=C(Nc1ccncc1)c1ccc2c(c1)C(=O)N(C1CCCCC1)C2=O,i,1,-5,-19,6,2,.,-8,
CCCNC(=O)Cc1c(C)n(C(=O)c2ccc(Cl)cc2)c2ccc(OC)cc12,i,15,1,-7,-10,2,8,-27,
O=C(CNC(=O)c1ccco1)N=Nc1c(O)[nH]c2ccc([N+](=O)[O-])cc12,i,13,3,4,.,4,0,.,
CCOc1ccc(Nc2cc(=O)[nH]c(=O)[nH]2)cc1,i,-7,-1,-3,-3,-15,4,-5,
COc1ccnc(N2CCN(c3ccccc3)CC2)c1C#N,i,-4,2,3,.,-2,.,.,
Nc1ccc(Oc2ccc3c(c2)C(=O)N(CC2CCCO2)C3=O)cc1 (stereo not given),i,1,-1,-6,34,1,-10,-24,
COc1ccccc1NC(=O)Cn1c(CN2CCCCC2)nc2ccccc2c1=O,i,3,-1,2,2,-12,.,-31,
Cc1ccc2nc(Nc3ccc(C)c(Cl)c3)c3nncn3c2c1,i,-4,0,1,14,-4,7,.,
Cc1ccc(C)c(OC2=NS(=O)(=O)c3ccccc32)c1,i,7,-1,-1,.,2,8,.,
COc1cc(Cl)cc(C(c2c(C(=O)O)[nH]c3ccccc23)c2c(C(=O)O)[nH]c3ccccc23)c1O,i,8,-1,8,0,12,-28,-10,
O=C(NCc1nc2ccccc2[nH]1)C1=C[C@@H](C2CCCCC2)C[C@@H](OCc2ccc(CO)cc2)O1,i,3,1,-9,2,6,11,-24,
COc1ccc(C)cc1NC(=O)COCC(=O)O,i,0,2,-2,-24,2,-5,9,
COc1ccc(C2(NC(C)=O)CCN(C(=O)c3ccco3)CC2)cc1,i,-4,-3,1,-9,-1,.,19,
CC(=O)Nc1ccc(NS(=O)(=O)Cc2ccccc2)cc1,i,8,0,2,-6,-2,22,-16,
Cc1ccc(NC(=O)CCn2c(=O)c3cccn3c3ccccc32)c(C)c1,i,-4,-2,-2,-14,-3,7,-10,
CC1CC2(C)Oc3ccccc3C3OCC1(CO)C(C)C32 (stereo not given),i,9,0,-2,-4,6,-23,-10,
O=C1CSC(=Nc2cccc(Cl)c2Cl)N1,i,-3,-7,-4,-11,-4,-17,-8,
Cc1ccnc(NC(=O)CCN2C(=O)c3ccccc3S2(=O)=O)n1,i,.,-1,1,.,.,-19,-10,
Cc1ccccc1-n1c(=O)c2ccccc2n2c(=O)[nH]nc12,i,4,6,3,-8,-5,20,-17,
O=C(CCS(=O)(=O)c1ccccc1)Nc1ccc(-c2nc3ccccc3s2)c(O)c1,i,-6,8,2,-5,0,-24,.,
O=C(Nc1ccc(S(=O)(=O)Nc2ncccn2)cc1)C(F)(F)F,.,-5,-1,3,-16,-2,0,-14,
CCc1ccc(C2=CSC3=NCCN23)cc1,i,-2,-5,0,32,-4,14,-12,
COc1ccc(-c2cc(C(=O)NCCN3CCOCC3)c3ccccc3n2)cc1,i,-4,-2,-2,-10,-5,.,0,
O=C(CCC1CCCN(C(=O)c2ccsc2)C1)N1CCN(c2ccccn2)CC1 (stereo not given),i,18,2,-1,-10,0,11,15,
CNCC(O)COc1cccc(OC)c1 (stereo not given),i,-8,-1,3,-5,-1,18,-15,
C/C(=N\Nc1nc(C)cc(-c2ccccc2)n1)c1cccc(N)c1,i,14,3,-8,10,-4,-24,-27,
Cc1ccc(NC(=S)N2CCOCC2)c(C)c1,i,-9,2,1,-12,-6,-7,-28,
Cc1ccnc2nc(C(=O)Nc3nnc(-c4ccccc4)o3)nn12,i,-1.8*,-1,5,-10,80*,-5,.,eIF4H FP inh retest=77*;PABP FP inh retest=82*
O=C(N/N=C/c1cc(Br)cc([N+](=O)[O-])c1O)c1ccc(NC(=O)c2ccc(F)cc2)cc1,i,14,-10,-7,42,10,11,-6,
CSc1ccccc1NS(=O)(=O)c1ccccc1,i,-1,0,1,-9,-10,-6,1,
CN(Cc1ccccc1)C(=O)CN(C1CCCCC1)S(C)(=O)=O,i,-1,2,4,-12,-10,-69,-12,
Cc1cc(Cl)ccc1OCC(=O)Nc1nc(-c2cccs2)cs1,i,4,2,-2,-1,0,-3,7,
CCCCN(C(=O)c1c(C)noc1C)c1c(N)n(CCC)c(=O)[nH]c1=O,.,.,-3,2,-6,.,.,-15,
Cc1nc2sc(C(c3cccs3)N3CCOCC3)c(O)n2n1 (stereo not given),i,-26,3,1,4,-2,-76,-1,
CCCCS(=O)CC(COC)OC(=O)c1ccccc1 (stereo not given),i,-3,-1,2,-10,-2,5,-16,
COc1ccc(C)cc1NC(=O)c1nn(C)c(C(=O)Nc2cc(C)ccc2OC)c1[N+](=O)[O-],i,-3,-3,-3,-5,-5,-13,-19,
O=C(c1ccccc1Cl)N(Cc1ccc(Cl)c(Cl)c1)N1C(=O)CCCC1=O,i,-1,-2,-2,.,-7,24,-12,
CC(C)(C)C(=O)Nc1cc(S(=O)(=O)Nc2ccc(Cl)cc2)ccc1O,i,1,7,-1,-5,2,6,.,
Cc1nn(C)c(C)c1S(=O)(=O)N1CCCC(C(=O)NCCc2ccc(Cl)cc2)C1 (stereo not given),.,-5,-2,1,-4,-5,0,-14,
COc1ccc(CNC(=O)c2nnn(Cc3ccc(OC)cc3)c2N)cc1,i,4,2,3,.,3,22,1,

# A run of entries from the list above:
SMILES,Rce1 inhib,PABP FP inh,MT1-MMP act inh,MT1-MMP act inh RFP,CSC inhib,eIF4H FP inh,Env fusion inh,UUG fidelity,others
CN(Cc1ccccc1)C(=O)CN(C1CCCCC1)S(C)(=O)=O,i,-1,2,4,-12,-10,-69,-12,
Cc1cc(Cl)ccc1OCC(=O)Nc1nc(-c2cccs2)cs1,i,4,2,-2,-1,0,-3,7,
CCCCN(C(=O)c1c(C)noc1C)c1c(N)n(CCC)c(=O)[nH]c1=O,.,.,-3,2,-6,.,.,-15,
Cc1nc2sc(C(c3cccs3)N3CCOCC3)c(O)n2n1 (stereo not given),i,-26,3,1,4,-2,-76,-1,
CCCCS(=O)CC(COC)OC(=O)c1ccccc1 (stereo not given),i,-3,-1,2,-10,-2,5,-16,
COc1ccc(C)cc1NC(=O)c1nn(C)c(C(=O)Nc2cc(C)ccc2OC)c1[N+](=O)[O-],i,-3,-3,-3,-5,-5,-13,-19,
O=C(c1ccccc1Cl)N(Cc1ccc(Cl)c(Cl)c1)N1C(=O)CCCC1=O,i,-1,-2,-2,.,-7,24,-12,

# Further results follow.
SMILES,Rce1 inhib,PABP FP inh,MT1-MMP act inh,MT1-MMP act inh RFP,CSC inhib,eIF4H FP inh,Env fusion inh,UUG fidelity,others
CCCCN(CC)C(=O)c1cc2c(=O)n3cccc(C)c3nc2s1,i,-4,-1,2,-5,-9,4,-3,
O=c1nc2s/c(=C\c3ccco3)c(=O)n2nc1Cc1ccccc1,i,76*,1,6,-3,96*,.,5,
CC(C)(C)C1CCC(=NNC(=S)Nc2cccnc2)CC1 (stereo not given),i,8,4,4,-9,0,-4,.,
Cc1c(CCC(=O)N[C@@H](CC(C)C)C(=O)O)c(=O)oc2cc3oc4c(c3cc12)CCCC4,i,1,-2,1,-7,2,23,-10,
CCOC(=O)Nc1ccc(C(=O)NCC2CCCO2)cc1 (stereo not given),i,-5,-6,0,-6,-3,-27,-8,
CC(=O)/C(=N\Nc1ccccc1)Sc1nncn1C,i,-9,5,11,-4,-8,10,.,
O=C(NCCC(c1ccccc1)c1ccccc1)c1ccc(Br)o1,i,-7,-19,-10,.,-1,.,9,
C=C(C)CCC1(C)NC(=O)N(c2ccccc2)N1 (stereo not given),i,-7,1,3,9,4,12,-19,
COc1ccc(Nc2nc(=O)[nH]nc2C)cc1,i,-11,1,1,10,4,11,-24,
Cc1ccc(/C(C#N)=C\c2cn(C)c3ccccc23)cc1,.,-8,.,.,38,-14,.,.,
C[C@]12CCC(=O)C=C1[C@H](O)C[C@@H]1[C@@H]2[C@@H](O)C[C@@]2(C)[C@H]1CC[C@]2(O)C(=O)CO,i,1,5,5,4,-2,-301,-14,
O=C(NCCOc1ccccc1)C1CCC(=O)N(CCc2ccccn2)C1 (stereo not given),i,2,-4,3,10,0,-10,-1,
CCOc1cc(-c2noc(CCC(=O)NCCc3ccccc3)n2)ccc1OC,i,8,-2,-4,-5,0,21,-1,
CCc1ccc(NC(=O)c2cnc(SC)nc2C)cc1,i,6,0,1,-1,-1,16,-14,
C=CCN1CCN(C(=O)c2cc3c(s2)CCCC3)CC1,i,3,4,1,12,-1,-24,-9,
CN1C(=O)c2cccc(NC(=O)CCc3ccccc3)c2C1=O,i,-3,-2,3,-11,-8,4,-1,
COc1ccc(Nc2oc(-c3ccccc3)nc2C#N)cc1,i,-2,6,0,2,6,-28,-13,
Fc1ccc(CNCc2ccco2)cc1,i,10,5,3,7,0,31,-11,
CCOc1cc(/C=C2\SC(=O)N(CC(=O)Nc3ccccc3F)C2=O)cc([N+](=O)[O-])c1O,i,23,13,-8,23,0,8,.,
COc1ccccc1C(=O)NC(=O)COC(=O)CCOc1ccccc1C,i,.,3,1,.,.,4,.,
Cc1noc(C)c1S(=O)(=O)Nc1ccccc1OC(F)(F)F,i,-2,-1,0,5,-4,11,-18,
O=C(CCc1ccccc1)Nc1ccc2c(c1)C(=O)OC2,i,-12,-4,0,10,-7,.,-8,
CC(=O)N/C(=C\c1ccccc1)C(=O)OC(C)C(=O)N(C)c1ccccc1 (stereo not given),i,.,1,-4,-9,.,.,-17,
Cc1ccc(N(CC(=O)NCCc2ccccc2)C(=O)c2csnn2)cc1,i,-2,-1,0,1,-2,-3,-22,
N#C/C(=C\c1ccc(OCCN2CCOCC2)cc1)C(=O)Nc1ccccc1F,i,-16,0,0,-3,-7,-1,-11,
CC(C)(C)c1nc2ccccc2c2nnc(SCC(=O)Nc3nccs3)n12,i,-8,-4,-14,.,-9,25,-14,
CCOC(=O)NC(=O)c1cn(CCNCCO)c(=O)[nH]c1=O,i,6,2,2,11,2,-1,2,
CC(C)NC(=O)COc1ccc(S(=O)(=O)N(C)Cc2ccccc2)cc1,i,-7,2,3,12,-2,-4,2,
O=C(N[C@@H]1CC[C@H](CCn2cc(-c3ccccn3)nn2)O[C@@H]1CO)c1ccncc1,.,.,3,6,.,.,5[16.7 µM],-23,
COc1ccc(CCN2CC(C(=O)NCc3cc(C(C)C)no3)CCC2=O)cc1 (stereo not given),i,-8,-4,0,.,-2,-3,-7,
Cc1ccc(S(=O)(=O)NCC(=O)OCC(=O)Nc2ccccc2OC(F)F)cc1,i,44,4,3,-1,-6,.,.,
Cc1ccc(NC(=O)C2CCCCC2)c(O)c1,i,-7,.,.,-14,-6,.,.,
COc1ccc(C(=O)NCC(=O)OCC(=O)NCc2ccc3c(c2)OCO3)cc1,.,.,-2,-1,-13,.,.,-10,
CCN(CC)S(=O)(=O)c1cccc(-c2nnc(SCCOc3ccccc3)o2)c1,i,-4,-10,-24,10,-3,.,-5,
CCO[C@H]1OC(C(=O)N2CCN(C)CC2)=C[C@@H](c2ccc3c(c2)OCO3)[C@@H]1CCCO,i,-4,2,3,-8,5,-15,-12,
